Source: PubChem BioAssay
PV pol inh: inhibitors of poliovirus RNA polymerase binding and polymerization; poliovirus polymerase elongation, fluorescence polarization; stronger effect = lower value; % elongation, % (compound at 16.7 µg/mL); actives 0.66% (n = 150,000); P03300; in the data active = % elongation below about 90%; note: some results filed as inactive read as strong as hits
Target sequence (P03300 1749-2209 limits assumed): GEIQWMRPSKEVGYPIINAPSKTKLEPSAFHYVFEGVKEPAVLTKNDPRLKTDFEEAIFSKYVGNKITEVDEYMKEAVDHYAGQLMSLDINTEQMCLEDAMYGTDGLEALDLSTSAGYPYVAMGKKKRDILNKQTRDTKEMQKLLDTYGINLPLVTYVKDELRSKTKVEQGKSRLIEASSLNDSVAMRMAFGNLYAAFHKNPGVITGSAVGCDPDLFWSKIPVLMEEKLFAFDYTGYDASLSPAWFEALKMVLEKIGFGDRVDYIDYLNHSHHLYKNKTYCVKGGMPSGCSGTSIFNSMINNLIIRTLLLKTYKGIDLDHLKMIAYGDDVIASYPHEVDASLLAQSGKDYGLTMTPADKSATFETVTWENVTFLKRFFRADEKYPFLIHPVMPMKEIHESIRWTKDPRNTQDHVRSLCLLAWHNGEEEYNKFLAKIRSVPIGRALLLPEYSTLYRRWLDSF
PV pol inh intensity: also measured in PV pol inh; calls as there; % elongation; measured here: total intensity read-out; formula for this scale not given here;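 total fluorescence in place of polarization; lower means less elongation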
An asterisk follows results filed as active.

SMILES	PV pol inh	PV pol inh intensity
CCCn1cc(S(=O)(=O)c2cc(C)ccc2C)c(=O)c2cc(F)c(N3CCN(CC)CC3)cc21	102	103
CCN(CC)c1ccc(NC(=O)CN2C(=O)c3cccnc3Oc3ccccc32)c(C)c1	105	99
CC(=O)Nc1ccc(NC(=O)c2ccc3c(c2)N(Cc2cccc(Cl)c2)C(=O)c2ccccc2S3(=O)=O)cc1	110	110
CSc1ccc(CCNC(=O)c2ccc(-n3c(C)cc4c3CCC(C)C4)cc2)cc1 (centres undefined)	101	93
COc1cccc(N2CCN(C(=O)c3cc4c(=O)n(Cc5ccco5)ccc4nc3C)CC2)c1	109	100
COc1ccc(CCNC(=O)CCCCn2c(=O)c3ccccc3n(Cc3ccccc3C)c2=O)cc1OC	111	109
Cc1nc2c(C(=O)NC(C)c3ccccc3)cnn2c(C)c1Cc1ccccc1 (centres undefined)	102	105
CCOc1ccc(NC(=O)c2cc3sc(Cl)cc3n2CC)cc1	104	104
COc1ccc(-c2nc3cc(NC(=O)COc4ccccc4C)ccc3o2)cc1	108	112
Cc1cccc(OCCSc2nc3ccc(NC(=O)COc4ccccc4F)cc3s2)c1	107	106
COc1ccc(CNC(=O)c2nn(-c3ccccc3C)nc2CO)cc1	111	114
CCCC(=O)Nc1ccc2nc(SCc3ccc(C)cc3)sc2c1	110	105
COc1ccc(CCCc2nnc(SCC(=O)Nc3cccc(F)c3C)o2)cc1	106	107
Cc1cccc(NC(=O)Cn2nnc(C(=O)NCc3cccs3)c2N)c1	107	110
COc1ccc(NC(=O)/C(C#N)=C/c2ccc(C)o2)cc1	108	113
COc1ccc(CNC(=O)c2ccc(Cn3c(=O)c4cccn4c4cccnc43)cc2)cc1OC	109	104
COc1ccc(C(=O)NCC2(N3CCN(C)CC3)CCCCC2)cc1	113	113
CCCCCn1c(=O)[nH]c2cc(C(=O)N3CCN(c4ccc(OC)cc4)CC3)ccc2c1=O	104	109
Cc1ccc(C)c(CSc2nnc3[nH]c(=O)cc(-c4ccccc4)n23)c1	104	111
CC1CCN(C(=O)CN2CCSc3ccc(S(=O)(=O)N(C)C)cc32)CC1	102	110
CC(=O)OCC#CCSc1nnc(-c2cccc(Br)c2)o1	107	110
O=C1CC(c2ccc(C(F)(F)F)cc2)c2c(c3ccccc3oc2=O)O1 (centres undefined)	105	107
CCOC(=O)c1ccc(N=C2SC(C(=O)Nc3ccccc3)CC(=O)N2C)cc1 (centres undefined)	104	106
Cc1cccc(-n2c(/C=C/c3c[nH]c4ccccc34)nc3ccccc3c2=O)c1	108	113
Cc1ccc(NC(=O)C2CCN(c3nn4cc(-c5ccc(C)cc5)nc4s3)CC2)cc1	105	104
SMILES	PV pol inh	PV pol inh intensity
CCOC(=O)C1CCCN(S(=O)(=O)c2ccc3c(c2)oc(=O)n3C)C1 (centres undefined)	106	113
Cc1cc(C(=O)N2CCN(c3ccccc3F)CC2)c2c(C)nn(-c3ccccc3)c2n1	115	109
Nc1c(-c2nc(-c3ccncc3)no2)nnn1CC(=O)Nc1ccccc1	114	105
CCC(=O)N1CCc2cc(S(=O)(=O)CCC(=O)NCc3ccccc3Cl)ccc21	113	114
COC(=O)c1ccc2c(=O)n(CCCCCC(=O)N3CCN(c4cccc(C)c4C)CC3)c(=O)[nH]c2c1	109	107
Cc1ccc(-n2c3c(c(=O)[nH]c2=O)C(NC(=O)C(C)(C)C)(C(F)(F)F)C(=O)N3)cc1 (centres undefined)	105	106
CCOC(=O)c1ccc(Nc2nc3ccc(C(=O)c4ccccc4)cc3n3c(C)nnc23)cc1	107	103
Cc1ccc(C(=O)CC2(O)C(=O)N(CCc3ccccc3)c3ccc(Cl)cc32)cc1 (centres undefined)	102	102
CCOc1ccc(CCNC(=O)c2cc3c(=O)oc4ccc(C)cc4c3s2)cc1OCC	103	107
Cc1cccc(CC2C(=O)Nc3ccccc32)c1 (centres undefined)	100	102
CCc1cnc2c(c1SCC(=O)Nc1ccc(C)cc1C)c(=O)n(C)c(=O)n2C	105	93
CCc1ccc(NC(=O)CCCc2nc(-c3ccco3)no2)cc1	98	98
CCOc1ccc(CNC(=O)C2Cc3ccccc3N2C(=O)CC)cc1OC (centres undefined)	105	110
Cc1cccc(CSCc2ccc(C(=O)NCCc3ccccc3)o2)c1	107	103
O=C(Nc1cc(Cl)cc(Cl)c1)c1ccc(F)c(S(=O)(=O)NC2CCCC2)c1	107	111
CC(C)(C)OC(=O)N1CCC(c2c(C(=O)Nc3ccc4c(c3)OCCO4)cnn2-c2ccc(F)cc2F)CC1	109	114
COc1ccc(N2CCN(C(=O)CSc3c4c(nc5ccc(Cl)cc35)CCCC4)CC2)cc1	104	105
Cc1ccc(Cn2c(C)c(CNC3CCCCC3)c(C(=O)O)c2C)cc1	100	110
O=C(CSc1nc2cc3ccccc3cc2[nH]1)Nc1cccc(C(F)(F)F)c1	106	102
Cc1ccc(CNC(=O)c2ccc3c(c2)N(Cc2ccccc2Cl)C(=O)CS3)cc1	106	112
CCCCN(C)CCNC(=O)c1ccc(Cn2c(=O)[nH]c3cc(OC)c(OC)cc3c2=O)cc1	104	105
O=S(=O)(Nc1ccc(F)cc1F)c1ccc(-n2cccn2)cc1	102	109
Cc1cc2nc(-c3ccc(Cl)cc3)cc(C(F)(F)F)n2n1	99	93
COC(=O)c1ccc(NC(=O)CCn2cccn2)cc1	108	104
Cc1ccsc1CN(C(=O)c1oc2ccc(Br)cc2c1C)C1CCS(=O)(=O)C1 (centres undefined)	119	118

Filtered by structure: those above containing two or more sulfur atoms
SMILES	PV pol inh	PV pol inh intensity
Cc1cccc(OCCSc2nc3ccc(NC(=O)COc4ccccc4F)cc3s2)c1	107	106
CCCC(=O)Nc1ccc2nc(SCc3ccc(C)cc3)sc2c1	110	105
CC1CCN(C(=O)CN2CCSc3ccc(S(=O)(=O)N(C)C)cc32)CC1	102	110
Cc1ccsc1CN(C(=O)c1oc2ccc(Br)cc2c1C)C1CCS(=O)(=O)C1 (centres undefined)	119	118

The results go on:
SMILES	PV pol inh	PV pol inh intensity
COc1ccc(-c2noc(CSc3nc(C)cc(=O)[nH]3)n2)cc1OC	102	104
CCOC(=O)c1[nH]c(C)c(CCC(=O)Nc2ccc(Br)c(C)c2)c1C	103	109
Cc1cc(N2CCCCC2)nc2ccc(NC(=O)/C=C/c3ccccc3OC(C)C)cc12	105	104
O=C(NCCn1cc(SCc2ccc(Br)cc2)c2ccccc21)c1cccs1	109	104
COC(=O)c1cc2oc3ccccc3c2n1Cc1cccc(C)c1	105	109
Cc1cc(Nc2cccc(C(F)(F)F)c2)ncn1	105	110
CCOc1ccccc1C(=O)N1CC(=O)Nc2ccc(Cl)cc2C1c1ccccc1 (centres undefined)	102	106
CCOc1ccc(NC(=O)Cn2c(=O)n(CC3CCCO3)c(=O)c3ccccc32)cc1 (centres undefined)	110	109
COc1ccc(OC)c(NC(=O)Nc2c(C)n(C)n(-c3ccccc3)c2=O)c1	102	104
COc1ccc(NC(=O)CSc2nc(-c3ccco3)cc(C(F)(F)F)n2)c(OC)c1	105	108
COc1ccc(Cl)cc1NC(=O)c1cnc2sc(N3CCOCC3)nn2c1=O	103	105
CCOCCCNC(=O)c1c[nH]c2ccc(S(=O)(=O)Nc3cccc(Cl)c3C)cc2c1=O	108	122
Cc1ccc(NC(=O)Nc2nnc(SCC(=O)N3CCC(C)CC3)s2)cc1	105	106
COc1cccc(C(=O)NC2=NC(c3ccc(N(C)C)cc3)CC(=O)N2)c1 (centres undefined)	103	110
O=S(=O)(c1ccc2[nH]c3c(c2c1)CCCC3)N1CCN(c2cccc(C(F)(F)F)c2)CC1	108	106
O=C(COCc1cc(-c2cccs2)on1)NCc1ccc(F)cc1	108	104
Cc1ccc(C)c(S(=O)(=O)c2nnn3c2nc(NCc2cccs2)c2sccc23)c1	112	111
CCSc1ncc(Cl)c(C(=O)Nc2ccc(S(=O)(=O)N3CCCCC3)cc2)n1	115	111
CCCCN(CC)C(=O)Cn1c(=O)n(-c2ccc(OCC)cc2)c(=O)c2c3c(sc21)CCC3	104	109
CCOc1ccccc1NC(=O)C(NS(=O)(=O)c1ccc2c(c1)CCC(=O)N2)c1ccccc1 (centres undefined)	108	111
COc1ccc(C)cc1NC(=O)CN(C)S(=O)(=O)c1ccc2c(c1)CCCN2C(C)=O	110	115
Cc1ccc(/C=C/c2onc(C)c2S(=O)(=O)N2CCC(C(=O)NCc3ccc(C)o3)CC2)cc1	104	97
CCOc1cccc(NC(=O)CSc2ncc(-c3ccc(Cl)cc3)[nH]2)c1	104	105
Cc1ccc(C2C(=O)N(C3CCC(C)CC3)CC(=O)N2C2CCCC2)cc1 (centres undefined)	107	109
Cc1cccc(NS(=O)(=O)c2ccc3c(c2)CCN3C(=O)CCC(=O)O)c1C	110	109

Rewritten as comma-separated lines: entries from further up
Compound,PV pol inh,PV pol inh intensity
COc1ccc(Cl)cc1NC(=O)c1cnc2sc(N3CCOCC3)nn2c1=O,103,105
CCOCCCNC(=O)c1c[nH]c2ccc(S(=O)(=O)Nc3cccc(Cl)c3C)cc2c1=O,108,122

The main list resumes, repeating the three entries before the break.
SMILES	PV pol inh	PV pol inh intensity
CCOc1cccc(NC(=O)CSc2ncc(-c3ccc(Cl)cc3)[nH]2)c1	104	105
Cc1ccc(C2C(=O)N(C3CCC(C)CC3)CC(=O)N2C2CCCC2)cc1 (centres undefined)	107	109
Cc1cccc(NS(=O)(=O)c2ccc3c(c2)CCN3C(=O)CCC(=O)O)c1C	110	109
CCOc1ccc(CCNC(=O)C2=C(C)C(=O)OC23CCC(C)CC3)cc1OCC (centres undefined)	108	112
CCCCNC(=O)c1ccc2c(c1)NC(=O)C(CS(=O)(=O)Cc1cccc(C)c1)N2 (centres undefined)	156	157
O=C(NCc1ccc(F)cc1)c1ccc(Nc2nc3ccccc3n3nnnc23)cc1	102	108
Cc1ccc(CNc2nc(-c3ccco3)nn2S(=O)(=O)c2ccc3ccccc3c2)cc1	108	105
Cc1ccc(NC(=O)C2CCN(S(=O)(=O)c3c(C)noc3C)CC2)cc1	113	113
CC(=O)N1c2ccccc2CC1C(=O)N1CCN(c2ccccc2F)CC1 (centres undefined)	100	97
O=c1[nH]c(SCc2c(F)cccc2Cl)nc2c1CCC2	105	108
Cc1ccc2c(=O)cc(C(=O)Nc3sc4c(c3C(=O)NCC3CCCO3)CCCC4)oc2c1 (centres undefined)	104	104
CCS(=O)(=O)N1CC(=O)N(c2cc(C)ccc2C)C(C)(C(=O)NC2CCCCC2)C1 (centres undefined)	103	104
COc1ccc(OC)c(C2CC(=O)Nc3c2c(=O)[nH]c2ncnn32)c1 (centres undefined)	105	108
CC(=O)c1ccc(NC(=O)CSc2c(C(C)C)cnc3c2c(=O)n(C)c(=O)n3C)cc1	106	110
COc1ccc(NC(=O)Nc2ccccc2OCc2cc(=O)n3ccccc3n2)c(OC)c1	98	96
CCOc1ccccc1CNC(=O)c1ccc2c(c1)sc1nc(-c3cccc(OC)c3)cn12	101	98
Cc1ccc(-n2ncc3c(NC4CCCCC4)ncnc32)cc1	108	105
Cc1ccccc1C(=O)NC1(C(F)(F)F)C(=O)Nc2c1c(=O)[nH]c(=O)n2CCc1ccccc1 (centres undefined)	97	98
Cc1ccc(N(C)C(=O)C2CCN(S(=O)(=O)c3ccc4c(c3)CCCN4C(=O)C3CCC3)CC2)cc1	112	113
Cc1ccc(N2C(=O)c3n[nH]c(C)c3C2c2ccc(Cl)cc2)cc1 (centres undefined)	107	109
CCc1ccc(CNC(=O)c2ccc3c(Cl)c4c(nc3c2)CCCC4)cc1	106	109
CCOc1ccc(CCNC(=O)c2cn(-c3ccc(OC)cc3)c(=O)c3ccccc23)cc1OCC	104	101
CCOc1ccc(NC(=O)COc2ccc(S(=O)(=O)NC3CCCCC3)cc2)cc1	108	113
CCOC(=O)c1ccc(NC(=O)Nc2c[nH]c(=O)[nH]c2=O)cc1	103	97
Cc1ccccc1-c1nc(CN2CCC(C(=O)NCc3ccccc3Cl)CC2)c(C)o1	110	110
COc1ccc(-c2cc(C(=O)NC(C)c3ccccc3)c3cc(C(C)C)ccc3n2)cc1 (centres undefined)	108	105
O=C(CCS(=O)(=O)c1nc(-c2cccs2)cc(C(F)(F)F)n1)Nc1cc(Br)ccc1O	105	111
CCOC(=O)c1cccc(NC(=O)NC(C)c2c(-n3cccc3)sc3c2CCN(C)C3)c1 (centres undefined)	107	98
SMILES	PV pol inh	PV pol inh intensity
Cc1c(CCNC(=O)c2ccc(Br)o2)sc2nc(-c3ccc(F)cc3)nn12	109	105
CCCc1ccc(OC(C)c2nc(-c3ccc(-n4cccc4)cc3)no2)cc1 (centres undefined)	103	106
COC(=O)c1ccc(NC(=O)CCc2c(C)nc3c(-c4ccccc4)c(C)nn3c2C)cc1	104	105
CCc1ccccc1NC(=O)Cn1c(=O)n(-c2ccccc2)c(=O)c2oc3ccccc3c21	103	104
O=C(C1CCCN(S(=O)(=O)c2cccc3nsnc23)C1)N1CCN(c2ccccc2)CC1 (centres undefined)	104	107
CCc1ccccc1NC(=O)N1CCCn2nc(C)cc21	107	107
O=C(Cc1ccc(Cl)cc1)Nc1ccc2oc(-c3ccccc3)nc2c1	108	110
CC(=O)Nc1ccc(NC(=O)C2CCN(c3c(NC(C)=O)c(C)nn3-c3ccccc3)CC2)cc1	112	111
Fc1ccc(CN2CCc3nc(N4CCN(c5ccccc5F)CC4)ncc3C2)c(F)c1	97	102
Cc1ccc2oc3c(c(=O)c2c1)C(c1cccc(O)c1)N(CCCN1CCOCC1)C3=O (centres undefined)	105	110

In another format: 2 of the compounds above
Molecule: COC(=O)c1ccc(NC(=O)CCc2c(C)nc3c(-c4ccccc4)c(C)nn3c2C)cc1
  PV pol inh: 104
  PV pol inh intensity: 105
Molecule: O=C(C1CCCN(S(=O)(=O)c2cccc3nsnc23)C1)N1CCN(c2ccccc2)CC1 (centres undefined)
  PV pol inh: 104
  PV pol inh intensity: 107

An excerpt; the hit share may differ from the screen's.
